# Marburg entry inh: qHTS for inhibitors of binding or entry into cells for Marburg Virus; Marburg virus pseudotyped entry inhibition, cell reporter; control for the full effect not named in the record; about a third of the inactives were read at about 46 µM; 300,000 compounds, 1.8% hits; Potency, µM (highest dose often 37.8 µM), without a hit: top-dose activity change, negative = inhibition, usual class: inhibitors; AID 540276, 2011; active = well fitted inhibition curve with a large enough effect; inconclusive = small, poorly fitted or top-dose-only effect, or effect the other way; inactive = flat fitted curve, though single readings scatter; tested in HEK293 cells; about a fifth of its hits are not listed in these tables; note: % is set by controls: 0 for no effect and ±100 for the full control effect; luciferase read-out
# 2A StopGo: High Throughput Screening for Foot and Mouth Disease Virus Antivirals; human cells with a luciferase reporter of 2A StopGo recoding; control for the full effect not named in the record; Potency, µM (series often up to 57.9 µM), inactives show at the top dose signal change, negative = less light; 410,000 compounds, 1.2% hits; AID 1159524, 2015; active = well fitted falling curve with a large enough effect; inconclusive = small, poorly fitted or top-dose-only effect; inactive = no such curve, though single readings can be large or run the other way; tested in HEK293T cells; note: % is set by controls: 0 for no effect and ±100 for the full control effect; nearly all actives have a fitted effect of over 45% in size; luciferase light after 4 h
# NS1 inh: qHTS Assay for Inhibitors of Influenza NS1 Protein Function | S. cerevisiae slowed by influenza A NS1, growth recovery by OD600 | Potency, µM (doses to about 46.1 µM), for inactives: at the top dose activity, positive = more growth | 270,000 compounds, 0.4% hits | AID 2326, 2010; active means well fitted rising curve with a large enough effect; inconclusive means small, poorly fitted or top-dose-only effect; inactive means no such curve, though single readings can be large or run the other way; note: nearly all actives have a fitted effect of over 50% in size
#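 Growth recovery, yeast-based: influenza A NS1 expressed in S. cerevisiae causes slow growth, and suppressors are detected by OD600. The parent strain without NS1 is used as positive control.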
# SARS PLpro yeast: qHTS of Yeast-based Assay for SARS-CoV PLP; Potency, µM (highest dose often 32.9 µM), without a hit: at the highest dose activity, positive = growth rescue; S. cerevisiae expressing SARS-CoV PLpro, growth rescue; control for the full effect not named in the record; 330,000 compounds, 0.19% hits; AID 485353, 2010; active means well fitted rising curve with a large enough effect; inconclusive means small, poorly fitted or top-dose-only effect; inactive means no such curve, though single readings can be large or run the other way; note: 0% is about no effect; nearly all actives have a fitted effect of over 55% in size; growth read by luminescence after 48 h
# Cruzain noTriton: qHTS Assay for Promiscuous and Specific Inhibitors of Cruzain (without detergent) | 200,000 compounds, 2.3% hits | Potency, µM, for inactives: max response, negative = inhibition, usual class: inhibitors | purified cruzain, Z-FR-AMC fluorescence, no detergent | AID 1476, 2009;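 note: plate controls were enzyme without inhibitor for no effect and buffer without enzyme for full effect; nearly all actives have a fitted effect of over 40% in size; top concentration of the series not given in the record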
# Target sequence (P25779 123-467 limits assumed): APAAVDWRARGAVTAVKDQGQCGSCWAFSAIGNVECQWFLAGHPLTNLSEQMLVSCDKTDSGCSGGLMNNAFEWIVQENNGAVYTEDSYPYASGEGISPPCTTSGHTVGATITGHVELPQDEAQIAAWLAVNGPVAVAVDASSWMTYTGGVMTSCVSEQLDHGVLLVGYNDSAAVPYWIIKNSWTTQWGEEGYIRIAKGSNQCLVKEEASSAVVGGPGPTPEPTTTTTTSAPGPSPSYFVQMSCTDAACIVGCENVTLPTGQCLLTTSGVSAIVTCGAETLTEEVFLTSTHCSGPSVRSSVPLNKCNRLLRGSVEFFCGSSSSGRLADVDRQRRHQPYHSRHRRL
#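 Detergent-free condition (0.00005% Triton X-100) in acetate buffer pH 5.5 with DTT. 1.5 nM enzyme and compound were pre-mixed 15 min, then 2 uM Z-FR-AMC substrate added; reaction progress from fluorescence change between first and third reads (60 s).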
# Lassa entry inh: qHTS for Inhibitors of binding or entry into cells for Lassa Virus; Lassa virus pseudotype entry inhibition, cell reporter; control for the full effect not named in the record; Potency, µM (series often up to 37.9 µM), for inactives: at the highest dose activity change, negative = inhibition, hits mostly inhibitors; 300,000 compounds, 1.2% hits; active means well fitted inhibition curve with a large enough effect; inconclusive means small, poorly fitted or top-dose-only effect, or effect the other way; inactive means flat fitted curve, though single readings scatter; tested in HEK293 cells; note: % is set by controls: 0 for no effect and ±100 for the full control effect; nearly all actives have a fitted effect of over 50% in size; luciferase read-out
# Cruzain inh Det: qHTS Assay for Promiscuous and Specific Inhibitors of Cruzain (with detergent). Cruzipain (Trypanosoma cruzi), P25779. purified cruzain, Z-FR-AMC fluorescence, 0.01% Triton. Potency, µM, for the others: max response, negative = inhibition, most hits filed as inhibitors. 200,000 compounds, 0.43% hits;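 note: plate controls were neutral wells for no effect and buffer without enzyme for full effect; nearly all actives have a fitted effect of over 40% in size; top concentration of the series not given in the record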
#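 Purified cruzain (1.5 nM final) was preincubated with compounds for 15 min at room temperature in 100 mM sodium acetate pH 5.5, 5 mM DTT, 0.01% Triton X-100. Reaction started with 2 uM Z-FR-AMC; AMC fluorescence change over 60 s gave activity.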
# RE007 growth inh: qHTS Assay for Inhibitors of the HIV-1 protein Vpr; S. pombe RE007 Vpr strain, BacTiter-Glo ATP luminescence, 24 h; control for the full effect not named in the record; Potency, µM (titrated, usually from 92.2 µM), without a hit: at the top dose activity change, negative = less growth; 360,000 compounds, 0.21% hits; AID 651644, 2012; active = well fitted falling curve with a large enough effect; inconclusive = small, poorly fitted or top-dose-only effect; inactive = no such curve, though single readings can be large or run the other way;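 note: % is set by controls: 0 for no effect and ±100 for the full control effect; nearly all actives have a fitted effect of over 50% in size; the assay follows cell death caused by Vpr and the record does not say whether a fall means rescue or toxicity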
#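 Fission yeast RE007 carrying one integrated HIV-1 vpr copy, seeded at OD 0.01 in PMG+AL medium with 23 nL pinned compound. Grown 24 h at 30 degrees; viability read by BacTiter-Glo luminescence after 5 min.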
# The depositor's hits bear a star; ? = inconclusive; nt = no result given; & = joins results of further samples; [ ] = another dose, or the depositor's remark. Unless noted, calls come from the whole dose curve; as a rule, active = well fitted curve in the direction sought with a large enough effect; inconclusive = small, poorly fitted or top-dose-only effect, or another doubt; inactive = no such curve, though single readings can be large; an effect the other way counts as inactive or inconclusive. Potency is the fitted concentration of half-maximal effect. Compounds were not picked by outcome. Share with any hit: about 4.6%.
SMILES,Marburg entry inh,2A StopGo,NS1 inh,SARS PLpro yeast,Cruzain noTriton,Lassa entry inh,Cruzain inh Det,RE007 growth inh
Cc1ccc(S(=O)(=O)NC2=NCN(CCOC(=O)c3ccc([N+](=O)[O-])cc3)CN2)cc1,-7.7%,-24.0%,5.7%,5.7%,-22.8%,13.4%,6.0%,4.5%
COc1ccc(-c2nc(-c3cc4cc(Br)ccc4oc3=O)cs2)cc1,nt,-15.0%,nt,nt,-6.7%,26.5%[46.1 µM],1.6%,nt
O=C(Cc1cc(=O)[nH][nH]1)N/N=C/c1c(Cl)cccc1Cl,15.1%&-15.3%,0.0%&-14.3%,10µM*,16.8%&27.9%,-1.3%&0.6%,11.9%&-5.8%,-1.2%&2.2%,4.1%&2.9%
Cc1ccc(OCC(=O)Nc2ccc(S(=O)(=O)Nc3ccccn3)cc2)cc1C,?,29.0%,-1.9%,-1.8%,nt,15.1%,nt,0.7%
CC1CC(C)CN(C(=O)CSc2nnc(-c3ccco3)o2)C1 (stereo not given),9.7%[46.1 µM],20.0%,-2.7%,6.4%,nt,15.1%,nt,8.4%
Fc1cccc(C2CCCCN2Cc2nc(C3CC3)no2)c1 (stereo not given),-1.6%[46.1 µM],-1.4%,2.1%,0.0%,nt,-5.1%[46.1 µM],nt,-0.7%
COc1ccccc1NS(=O)(=O)c1cc(NC(=O)c2cc(=O)[nH]c3ccccc23)ccc1N1CCOCC1,nt,31.2%[activator],-4.4%,0.4%,nt,nt,nt,3.1%
Clc1ccc2oc(SCc3cccnc3)nc2c1,nt,14.4%,-6.0%,-3.3%,nt,nt,nt,-28.7%
CC(=O)c1c(C)[nH]c(C(=O)OCC(=O)N(C)C)c1C,?,nt,8.2%,2.6%,-0.8%,1.2%,6.5%,11.0%
Cc1ccc(-n2cnc3cc(C(=O)NC4CCCCCC4)ccc32)c(C)c1,nt,-2.4%,nt,nt,0.7%,-13.7%[46.1 µM],0.3%,nt
Cc1ccc2c(c1)C(=O)c1ccccc1CS2=O (stereo not given),0.8%,-17.4%,16.2%,19.6%,-4.5%,-2.3%,-3.6%,0.9%
Cc1ccccc1CSc1nnc(-c2ccccn2)n1N,17.2%,75.5%[activator],-11.4%,-2.1%,-4.5%,?,2.8%,15.6%
Cc1c(C(=O)Nc2ccc(F)c(C(F)(F)F)c2)sc2nc(-c3ccccc3)cn12,nt,-9.0%,nt,nt,-10.2%,3.0%[46.1 µM],-5.2%,nt
COc1cc(N2N=C(c3ccccc3)CC2c2ccccc2)c(C=O)cc1C=O (stereo not given),4.3%,-27.3%,19.5%,-7.5%,nt,?,nt,-0.2%
C=CCNC(=O)/C(=C\c1cccc([N+](=O)[O-])c1)NC(=O)c1ccccc1,0.2%,-22.6%,13.0%,-8.4%,10.7%,-8.6%,-3.2%,-1.1%
Cc1nc2[nH]c(=O)n(O)c(=O)c2s1,21.0%,-12.6%,nt,nt,nt,6.3%,nt,0.6%
Cc1cc(C)cc(NC(=O)CSc2nnc(-c3ccccc3Br)o2)c1,22.7%,-22.5%,-20.9%,4.4%,-8.0%,3.1%,-1.2%,20.6%
CCOc1ccc(C(=O)NNC(=O)CN2C(=O)NC3(CCCC3)C2=O)cc1,-14.5%,2.8%,nt,-8.2%,nt,3.7%,nt,-1.5%
CC(C)N1OC2CC1c1nc3ccccc3n1C2 (stereo not given),nt,-12.9%,-9.6%,-5.0%,nt,nt,nt,-11.2%
Cc1ccc(C(NC(=O)c2ccccc2S(C)(=O)=O)c2ccccc2)cc1 (stereo not given),?,-14.0%,3.4%,2.9%,nt,-20.3%[46.1 µM],nt,-5.5%

# The final 5 entries of the part above are carried over, then new ones follow.
SMILES,Marburg entry inh,2A StopGo,NS1 inh,SARS PLpro yeast,Cruzain noTriton,Lassa entry inh,Cruzain inh Det,RE007 growth inh
Cc1nc2[nH]c(=O)n(O)c(=O)c2s1,21.0%,-12.6%,nt,nt,nt,6.3%,nt,0.6%
Cc1cc(C)cc(NC(=O)CSc2nnc(-c3ccccc3Br)o2)c1,22.7%,-22.5%,-20.9%,4.4%,-8.0%,3.1%,-1.2%,20.6%
CCOc1ccc(C(=O)NNC(=O)CN2C(=O)NC3(CCCC3)C2=O)cc1,-14.5%,2.8%,nt,-8.2%,nt,3.7%,nt,-1.5%
CC(C)N1OC2CC1c1nc3ccccc3n1C2 (stereo not given),nt,-12.9%,-9.6%,-5.0%,nt,nt,nt,-11.2%
Cc1ccc(C(NC(=O)c2ccccc2S(C)(=O)=O)c2ccccc2)cc1 (stereo not given),?,-14.0%,3.4%,2.9%,nt,-20.3%[46.1 µM],nt,-5.5%
COc1cccc(C(=O)NC2CCN(CC(=O)NCc3ccccc3OC)CC2)c1,11.2%,5.0%,-6.0%,1.5%,-1.0%,18.5%,3.4%,9.3%
Cc1cccc(CNC(=O)c2cnc3sc(N4CCOCC4)nn3c2=O)c1,nt,-19.0%,nt,nt,5.8%,-0.8%[46.1 µM],-0.2%,nt
CSc1cccc(NC(=O)CSc2ccccc2)c1,-0.6%,31.3%[activator],-41.4%,-4.1%,-6.9%,-2.9%,-8.1%,?
COCCNC(=O)Cn1c(=O)n(CCCCCC(=O)NCc2ccc3c(c2)OCO3)c(=O)c2sccc21,?,-2.2%,nt,1.2%,3.7%,5.6%[46.1 µM],-3.1%,nt
O=C(N/N=C/c1ccco1)c1cccc(NC(=O)c2ccccc2Cl)c1,21.6%[46.1 µM],31.7%[activator],5.3%,5.2%,nt,12.8%[46.1 µM],nt,-7.8%
Cc1noc(C)c1C(=O)NC(C)c1ccc2c(c1)OCO2 (stereo not given),-0.8%,4.0%,?,2.2%,-2.9%,3.4%,7.7%,-7.9%
CCN1CCN(CCC(=O)Nc2cccc(OC)c2)CC1,2.5%,3.5%,11.9%,1.7%,-7.5%,?,7.8%,-6.9%
CCOC(=O)C1=C(CN2CCN(CC)CC2)NC(=O)NC1c1ccc(Cl)cc1 (stereo not given),?,0.0%,nt,nt,3.9%,-2.8%[46.1 µM],-0.5%,nt
COc1ccc(N2CCN(S(=O)(=O)c3ccc4c(c3)NC(=O)C(C)C(=O)N4)CC2)cc1 (stereo not given),nt,-28.5%,-2.4%,-1.6%,nt,nt,nt,-1.3%
Cc1[nH]c2ccccc2c1/C=C(/C#N)C(=O)NC(C)C,-3.1%[46.1 µM],-22.7%,1.9%,14.2%,nt,22.2%[46.1 µM],nt,1.6%
CCOC(=O)CC1COc2ccccc2N1C(=O)c1cccc([N+](=O)[O-])c1 (stereo not given),2.8%[46.1 µM],9.0%,-2.5%,-0.7%,nt,-9.9%[46.1 µM],nt,0.6%
COc1cc(C=O)ccc1OCc1c(C)noc1C,9.1%,13.0%,-1.6%,10.5%,0.9%,-2.3%,2.2%,-21.5%
CC(C)C(=O)Nc1c(-c2ccccc2)c(=O)c2ccccc2n1C,-4.2%[46.1 µM],-14.9%,2.2%,0.7%,nt,-16.4%,nt,20.4%
O=C(Nc1ccncc1)Nc1cc(Cl)ccc1Cl,-5.9%[46.1 µM],-4.9%,16.6%,2.6%,nt,-7.1%[46.1 µM],nt,-7.6%
O=C(C[n+]1ccc(-c2nnc3n2CCC3)cc1)c1ccc(Cl)c(Cl)c1,?,-2.4%,?,-0.9%,5.2%,4.6%,-28.8%,17.5%
Cc1ccc(Cn2c(CNC(=O)c3ccc(Cl)c([N+](=O)[O-])c3)nc3cccnc32)cc1,nt,-6.3%,nt,nt,-17.4%,5.3%[46.1 µM],-9.8%,nt
NC(=O)COC(=O)/C=C/c1ccc2ccccc2n1,?,27.7%,3.2%,0.9%,nt,-13.2%,nt,-12.8%
CC(=O)c1c(NC(=O)c2ccccc2)[nH]c(-c2ccccc2)nc1=S,2.9%[46.1 µM],-9.2%,nt,6.9%,nt,-2.6%[46.1 µM],nt,11.6%
COc1ccc(C(=O)COc2ncnc3cc(Cl)ccc23)cc1,-8.3%[46.1 µM],43.5%[activator],1.5%,0.8%,nt,?,nt,-6.9%
Nc1nonc1-c1nc2ccccc2n1CC(=O)Nc1ccccc1C(=O)O,?,14.6%,nt,nt,-9.1%,-26.8%[46.1 µM],-8.2%,nt
CCOC(=O)c1cnc2ccc(C(=O)OC)cc2c1NCc1ccco1,-2.3%,nt,0.0%,0.3%,4.7%,nt,-3.8%,nt
COc1cc(/C=N/NC(=O)c2ccc(-c3ccccc3)cc2)cc(OC)c1OC,-28.4%,0.0%,22.9%,5.9%,?,-2.3%,-20.6%,-5.7%
N#CC1(NC(=O)CN2C(=O)c3ccc([N+](=O)[O-])cc3C2=O)CCCCC1,-6.5%,-21.2%,nt,-1.6%,nt,-7.1%,nt,0.0%
O=c1[nH]c(S)nc2sc3c(c12)CCCC3,nt,-12.6%,11.5%,0.6%,nt,nt,nt,2.9%
CCCc1[nH]nc2c1C(c1ccoc1)C(C#N)=C(N)O2 (stereo not given),-5.3%,?,-8.5%,-20.2%,-8.4%,-10.8%,-2.6%,-1.0%
CC(C)CN(CC(C)C)CC(O)COc1ccc([N+](=O)[O-])cc1 (stereo not given),?,-12.6%,1.6%,2.2%,-1.8%,8.7%,-3.0%,-7.7%
CCn1c(SCC(=O)NC(=O)c2ccccc2OC)nc2ccccc21,15.3%[46.1 µM],-1.0%,15.4%,-1.6%,nt,25.3%[46.1 µM],nt,16.3%
Cc1nnc2c3ccccc3c(-c3cccs3)nn12,-1.9%[46.1 µM],14.5%,nt,1.2%,nt,11.8%,nt,16.1%
